Screening data from PubChem BioAssay.
Yeast UUG start: modulators of start codon recognition fidelity in yeast; S. cerevisiae UUG-firefly luciferase reporter, luminescence/redox ratio; 350,000 compounds, 0.13% hits; activity score, % at 18.7 µM;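 active = replicate mean at a twofold rise or more, about +100% in these data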;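 note: firefly luciferase made from a UUG start codon reports start codon fidelity; reporter light over untreated wells divided by growth signal over untreated wells; some hits fall short of that in this replicate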
PABP FP inh: PABP-poly(A) binding inhibition; P11940; PABP-poly(A) RNA binding, fluorescence polarization; inhibition, % at 35 µM; 290,000 compounds, 1% hits; AID 2014;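 active = 50% or more with normal probe brightness, or confirmed in later tests; inconclusive = above 50% with abnormal brightness, or retests that disagree; inactive = below 50% or failed in later tests; about a fifth of its hits are not listed in these tables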;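 note: calls also rest on retests at 20 µM and on dose response follow-up; controls were probe without protein and protein plus probe with vehicle; some compounds called inactive have numbers as strong as hits; many hits fall short of the cut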
Rce1 inhib: inhibitors of yeast Ras-converting enzyme. yeast membranes, quenched prenylated peptide cleavage fluorescence. Q03530. calls only. 290,000 compounds, 0.27% hits. AID 2563;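 active = fall in fluorescence gain of 50% or more versus controls, with final raw signal at or below 3038400; inconclusive = same 50% fall but final raw signal above 3038400; inactive = fall in fluorescence gain under 50%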;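 note: plate controls were neutral control wells for no effect and wells lacking membranes for full effect; tested at 10 µM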
Target sequence (Q03530 whole entry, looked up): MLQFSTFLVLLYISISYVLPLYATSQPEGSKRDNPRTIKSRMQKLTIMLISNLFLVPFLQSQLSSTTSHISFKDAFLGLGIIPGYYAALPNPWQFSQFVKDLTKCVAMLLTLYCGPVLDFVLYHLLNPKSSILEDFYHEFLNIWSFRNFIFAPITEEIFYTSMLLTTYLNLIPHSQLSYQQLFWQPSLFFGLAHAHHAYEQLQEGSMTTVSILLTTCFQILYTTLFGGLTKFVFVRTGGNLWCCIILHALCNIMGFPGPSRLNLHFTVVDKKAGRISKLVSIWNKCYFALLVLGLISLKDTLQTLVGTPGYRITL
eIF4H inh: inhibitors of RNA binding by human eIF4H; eIF4H fluorescence polarization binding assay; inhibition, % at 35 µM; AID 2012; 290,000 compounds, 0.94% hits; Q15056;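 active = 50% or more with normal probe brightness, or confirmed in later tests; inconclusive = above 50% with abnormal brightness, or retests that disagree; inactive = below 50% or failed in later tests; about a fifth of its hits are not listed in these tables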;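 note: calls also rest on retests at 20 µM and on dose response follow-up; 0% = protein and probe with vehicle and 100% = probe without protein; strong numbers were not always called active; many hits fall short of the cut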
MT1-MMP act inh: blocks activation of human MT1-MMP; P50281; HT1080 RFP-PRO-GFP cells, GFP/RFP ratio fluorescence, overnight; percent of plate control window, DMSO zero; GFP/RFP ratio change, % at 20 µM; 360,000 compounds, 0.061% hits; AID 651647;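 active = GFP/RFP ratio change of at least 30% with cell ATP level not reduced by more than half and red fluorescence within 50% of control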; note: strong numbers were not always called active
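Assay system: HT1080 cells carrying an RFP-PRO-GFP reporter | Dosing: Single dose of 20 µM compound, 1% DMSO final | Incubation: Cells overnight before dosing, compound overnight, 37 °C, 5% CO2 | Evaluation: GFP/RFP fluorescence ratio | Control set: DMSO and RFP-L50D-GFP cell wells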
Env fusion inh: blocks HIV Env-driven cell-cell fusion. HeLa-JRFL Env/CEM21 cell fusion, luciferase. inhibition, % at 12.3 µM. 360,000 compounds, 1.1% hits;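 active = mean replicate inhibition score of at least 50 and every replicate individually at or above 50; inconclusive = only one of the two criteria met; inactive = mean below 50 and not all replicates reaching 50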;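 note: 0% = plate neutral controls and 100% = maraviroc near 300 nM; one replicate is shown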
CSC inhib: cancer stem cell inhibition | cancer stem cell-like cells viability, luminescence | inhibition, % at 7.5 µM | 300,000 compounds, 1.1% hits | AID 2717;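 active = mean at 75% or more and at least half the replicates too; inconclusive = mean and replicates disagree; tested in HMLE shEcad cells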;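 note: 0% = median of negative and 100% = median of positive control wells; the first replicate is given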
MT1-MMP act inh RFP: further read-out of MT1-MMP act inh, marked with its call; RFP signal change, %; measured here: RFP expression control read;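 0 = vehicle wells; hits needed this value within 50% of zero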
* hit, by the source's call; i = inactive; ? = inconclusive; . = no result given; & = joins results of further samples.

canonical_smiles,Yeast UUG start,PABP FP inh,Rce1 inhib,eIF4H inh,MT1-MMP act inh,MT1-MMP act inh RFP,Env fusion inh,CSC inhib
COc1ccc(C(=O)NC(=S)N2CCN(c3ccccc3OC)CC2)cc1OC,-19,1,i,-5,4,2,17,-6
CCCc1cc(=O)oc2cc(C)cc(OCC(=O)NC3CCN(Cc4ccccc4)CC3)c12,-5,-3,i,-3,7,0,1,-10
COc1cc(NC(=O)COC(=O)CNC(=O)c2cc(C)cc(C)c2)c(C)cc1[N+](=O)[O-],-4,-1,i,-4,3,4,-7,4
COc1ccc(NC(=O)CN2C(=O)COc3ccc(S(=O)(=O)N4CCOCC4)cc32)c(OC)c1,-15,.,i,.,-2,0,0,1
Cn1cncc1C#Cc1c(C=O)n(C)c2ccccc12,-15,.,.,.,0,-3,-5,-26
C/C=C/c1ccc(OCC(=O)OCC2=C(C(=O)OCC)C(C)NC(=O)N2)c(OC)c1 (stereo unspecified),.,.,i,.,-1,2,2,17
COc1ccc(CN2CCC3CC2c2cc(-c4cccc(C)c4)ccc23)cc1 (stereo unspecified),-8,.,.,.,3,2,3,.
COc1ccc(CC(=O)N2CCOCC2)cc1,-17,10,i,4,-1,2,.,-7
O=C(c1ccco1)c1cc2c(ccc3ccccc32)oc1=O,-12,3,i,7,5,5,-61,-14
CC/C(=N/N=C(/CC)c1ccc(O)cc1)c1ccc(O)cc1,-6,.,i,.,-4,-7,-39,5
Cc1ccc(-n2nnnc2-c2ccccc2)cc1,3,4,i,1,6,-1,2,3
NC(=O)CC(NC(=O)Cc1ccc(Br)cc1)c1ccc(N2CCN(c3ccccc3)CC2)c([N+](=O)[O-])c1 (stereo unspecified),38,-15,i,-8,3,-12,20,?
CC1CC(C)(C)NC(=S)O1 (stereo unspecified),.,11&-2,i,-7&-6,2&4,1&-1,-19&13,6&-2
O=C(NCCc1ccc(F)cc1)c1cccs1,.,-1,i,0,-3,1,.,-4
O=C(CN(C(=O)Cn1nnc(-c2cccs2)n1)c1ccc2c(c1)OCCO2)NCC1CCCO1 (stereo unspecified),17,0,i,0,4,9,5,10
Nc1nc(-c2ccco2)c(-c2ccco2)s1,.,?,i,?,-5,6,.,2
Cc1ccsc1C(C(=O)NC(C)(C)C)N(C(=O)c1csnn1)c1ccccc1 (stereo unspecified),.,4,i,-9,2,1,16,-16
O=C(O)c1ccc2nnn(O)c2c1,-17,2,i,-1,1,-1,-15,-13
O=c1[nH]n2c(=O)c3c([nH]c2c1N=Nc1ccccc1)CCC3,-20,-6,i,30,19,1,32,-7
CC(C)(C)c1ccc(S(=O)(=O)C(C)(C)C)cc1,-12,7,i,2,0,2,8,10
COC(=O)COc1ccc(NC(=O)Cn2nc(-c3ccccc3)c3ccccc3c2=O)cc1,-7,-4,i,-2,2,8,13,3
c1ccc(-c2nc(-c3cccs3)[nH]c2-c2ccccc2)cc1,28,0,.,-12,-8,-7,.,7
Cc1ccc(C)c(N(CC(=O)NCc2ccc3c(c2)OCO3)C(=O)CCC(=O)Nc2ccccn2)c1,9,8,i,-5,3,-3,.,.
C=CCNC(=S)Nc1cccc2ccccc12,.,-6,i,-1,-2,2,.,-12
Cc1ccnc2nc(C(=O)OC(C)C(=O)NCc3ccccc3)nn12 (stereo unspecified),-16,.,.,.,1,8,-6,-7
COCCN1C[C@@H](CO)O[C@@H](n2cnc3c(NC(C)C)ncnc32)C1,-17,.,.,.,2,6,2,.
CN(C)CCCn1c(=S)[nH]c2ccccc2c1=O,0,15,i,5,-2,-2,5,5
O=C(CN1CCN(CC(=O)Nc2ccccn2)CC1)Nc1ccccn1,-8,16,i,-3,4,1,.,7
CCCCNC(=O)c1nc(-c2ccncc2)oc1-c1ccccc1,-13,.,.,.,1,1,5,.
Cn1c(C(=O)Nc2ccc(Cl)cc2)cc2cc(Cl)ccc21,-9,6,i,0,0,1,-6,-12
CCN(CC)S(=O)(=O)c1cccc(S(=O)(=O)N2CCCCC2)c1,-7,-2,i,-4,-5,-3,.,-13
CSc1nc(Nc2ccc(Cl)cc2)c(C#N)c(=O)[nH]1,-6,14,i,-4,0,-1,?,18
Cc1ccc(Cl)cc1NC(=O)c1cc2ccccc2cc1O,12,16,i,1,-6,-32,?,28
Cc1ccccc1NC(=O)C1Cc2ccccc2CN1C(=O)OCc1ccccc1 (stereo unspecified),-15,-5,i,1,-11,-5,-26,-1
O=C(NC1CCCCC1)C(c1ccccn1)N(C(=O)c1csnn1)c1ccccc1F (stereo unspecified),-5,8,i,8,3,5,4,-1
COc1ccc(NC(=O)CSc2nnc(-c3cccs3)n2C)cc1OC,-16,4,i,-11,3,4,-48,-7
O=C(c1ccoc1)N1CCN(c2cc(-c3cccnc3)nc3cc(-c4cccc(Cl)c4)nn23)CC1,-7,.,.,.,-7,-12,-5,.
NC(=O)c1cc(S(=O)(=O)NCc2cccc(Br)c2)cs1,-7,-10,i,-2,5,-3,-2,2
Cc1cc(C)n2nc(SCCC(=O)NCCc3ccccc3)nc2n1,1,6,i,1,-3,-1,-31,-5
Cc1cc(NC(=O)C2CCCCC2)nc2c1c(=O)oc1ccccc12,.,-1,i,2,-11,-13,.,-3
Cc1ccc(NC(=O)COC(=O)CN2C(=O)C3CCCCC3C2=O)cc1C (stereo unspecified),-29,.,.,.,3,3,.,-11
CC(C)CNC(=S)Nc1ccccc1F,.,1,i,8,-1,1,24,-14
Cc1cccc(C)c1NC(=O)CNC(=O)c1ccc2nc[nH]c2c1,.,.,i,.,1,5,1,-6
COc1ccc(NC(=O)/C=C2\SC(=O)NC2=O)cc1,.,18,i,-6,-1,0,-4,-6
Cc1ccc(-c2noc(C3CCCN(C(=O)c4c(F)cccc4F)C3)n2)cc1 (stereo unspecified),7,-1,i,-16,8,-10,37,-4
CON(C)c1nc(OCCNC(=O)COc2ccc(Cl)cc2C)nc(N(C)C)n1,1,-3,.,2,-5,-1,163*,0
COc1ccc([C@@H](OC)[C@@]2(Cc3ccc(O)cc3)N=C(N)N(C)C2=O)cc1,1,.,.,.,1,3,5,-15
COc1ccc(NS(=O)(=O)c2cc(NC(=O)C3CC3)ccc2N2CCCCC2)cc1,-7,-2,i,-9,1,-10,4,20
COc1ccc(CCNc2c(C=O)c(=O)[nH]c3ccccc23)cc1OC,-5,8,i,3,-3,-1,6,-1
COc1ccc([C@@H]2CC=C(C(=O)O)[C@H](c3cccc(Cl)c3)N2S(=O)(=O)c2ccccc2C)cc1,-5,.,.,.,-1,2,-8,-4
Cc1cccc(C)c1NC(=O)C(C)Sc1n[nH]c(-c2ccncc2)n1 (stereo unspecified),-11,4,i,6,-5,-2,9,.
O=C(Nc1ccc(C(F)(F)F)cc1)c1ccccc1Br,-20,-16,i,1,2,-6,-5,-4
COC(=O)C1CCN(C(=O)COC(=O)c2oc3ccc(OC)cc3c2C)CC1,-3,6,i,-4,0,3,-17,-3
Cc1cnc(C(=O)OCC(=O)N(CC(C)C)C2CCS(=O)(=O)C2)cn1 (stereo unspecified),-18,.,.,.,4,-1,7,-22
Cc1ccc(S(=O)(=O)N2CCN(C(=O)COC(=O)/C=C/c3ccccc3)CC2)c(C)c1,-12,.,.,.,-3,0,7,4
CCN(C(=O)COC(=O)c1ccc(SC)cc1OC)C1CCS(=O)(=O)C1 (stereo unspecified),-6,.,.,.,-4,-2,-2,10
CC1CCCC(NC(=O)CSc2nnc(-c3cccnc3)n2N)C1C (stereo unspecified),-19,.,.,.,-7,3,-2,-3
COc1ccc(C2C(C(=O)c3ccc(C)o3)=C(O)C(=O)N2Cc2cccnc2)cc1 (stereo unspecified),-19,12,i,0,1,0,-5,-6
Cc1ccc(/C=C/C(=O)N2CCN(S(=O)(=O)c3ccc(C)c(C)c3)CC2)o1,-29,0,i,4,-10,1,-6,5
OCCN1CN=C(Nc2nc3ccccc3s2)NC1,19,-1,i,-9,-7,-3,-66,-4

The listing continues.
canonical_smiles,Yeast UUG start,PABP FP inh,Rce1 inhib,eIF4H inh,MT1-MMP act inh,MT1-MMP act inh RFP,Env fusion inh,CSC inhib
Cc1cnc(C(=O)OCC(=O)Nc2c(Cl)cc(Cl)cc2Cl)cn1,-26,.,.,.,-3,2,6,6
CC1CCCN(S(=O)(=O)c2cccc(-c3cn4cccnc4n3)c2)C1 (stereo unspecified),-15,-6,i,7,3,-3,.,-4
C/C(=N\N=C\c1cccc(F)c1)c1nnn(-c2nonc2N)c1C,.,11,i,-1,2,6,.,-3
COCC(=O)Nc1ccc2c(c1)[C@@H]1C[C@H](CC(=O)NCc3cccc(F)c3)O[C@@H](CO)[C@@H]1O2,-33,.,.,.,2,1,2,.
CCCOC(=O)COC(=O)c1ccccc1NC(=O)c1ccccc1,.,-4,i,2,0,2,7,3
CCc1ccc(OCC(=O)N2CC(C(N)=O)Oc3ccccc32)cc1 (stereo unspecified),-3,-3,i,-6,4,1,-3,-1
O=S(=O)(Nc1ncnc2c1oc1ccccc12)c1ccc(Cl)s1,-13,6,.,-5,3,0,-19,-5
Cn1c(C(=O)OC(C(=O)NC2CCCCC2)c2cccnc2)cc2sccc21 (stereo unspecified),-11,-17,i,-6,2,-14,-1,8
COC(=O)c1sccc1NC(=O)CC1C(=O)NCCN1C(=O)Nc1ccc(F)cc1F (stereo unspecified),4,3,i,5,1,4,18,-9
CC(C)c1ccc(-n2nc3ccc(N)cc3n2)cc1,-30,-4,i,1,-11,-1,-205,9
Cn1c(SCC(=O)NC2CC2)nnc1C1CC1,-2,2,i,0,-4,2,.,-6
O=C1c2ccccc2C(=O)N1CCCCSc1nnc2ccccn12,-9,3,i,-4,-1,-2,.,2
COc1ccc(F)cc1S(=O)(=O)NCCN1CCOCC1,-15,-11,i,1,0,-1,5,8
